SARS PLpro yeast: SARS-CoV PLP inhibition in yeast | S. cerevisiae expressing SARS-CoV PLpro, growth rescue; control for the full effect not named in the record | Potency, µM (titrated, usually from 32.9 µM), inactives show top-dose activity, positive = growth rescue | 330,000 compounds, 0.19% hits; active means well fitted rising curve with a large enough effect; inconclusive means small, poorly fitted or top-dose-only effect; inactive means no such curve, though single readings can be large or run the other way; note: 0% is about no effect; nearly all actives have a fitted effect of over 55% in size; growth read by luminescence after 48 h
Lassa entry inh: inhibitors of Lassa virus binding or cell entry; Lassa virus pseudotype entry inhibition, cell reporter; control for the full effect not named in the record; Potency, µM (titrated, usually from 37.9 µM), without a hit: at the highest dose activity change, negative = inhibition, usual class: inhibitors; 300,000 compounds, 1.2% hits; active means well fitted inhibition curve with a large enough effect; inconclusive means small, poorly fitted or top-dose-only effect, or effect the other way; inactive means flat fitted curve, though single readings scatter; tested in HEK293 cells; note: % is set by controls: 0 for no effect and ±100 for the full control effect; nearly all actives have a fitted effect of over 50% in size; luciferase read-out
Cruzain Triton: blocks cruzain activity in presence of Triton detergent; 200,000 compounds, 0.43% hits; Potency, µM, inactives show max response, negative = inhibition, most hits filed as inhibitors; AID 1478; purified cruzain, Z-FR-AMC fluorescence, 0.01% Triton; P25779;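 note: plate controls were neutral wells for no effect and buffer without enzyme for full effect; nearly all actives have a fitted effect of over 40% in size; top concentration of the series not given in the record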
Target sequence (P25779 123-467 limits assumed): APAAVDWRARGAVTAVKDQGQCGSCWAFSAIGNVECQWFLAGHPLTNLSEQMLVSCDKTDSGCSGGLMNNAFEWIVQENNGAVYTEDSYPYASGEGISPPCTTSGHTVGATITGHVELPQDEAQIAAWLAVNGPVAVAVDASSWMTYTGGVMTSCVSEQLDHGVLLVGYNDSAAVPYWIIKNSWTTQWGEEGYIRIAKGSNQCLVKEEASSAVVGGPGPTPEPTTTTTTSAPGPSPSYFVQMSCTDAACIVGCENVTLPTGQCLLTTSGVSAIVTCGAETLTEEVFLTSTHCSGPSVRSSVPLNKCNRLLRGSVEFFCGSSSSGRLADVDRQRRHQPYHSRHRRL
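Compounds were screened in titration against cruzain (1.5 nM) with 0.01% Triton X-100 to counter colloidal aggregation. Activity was the AMC fluorescence increase over 60 s after adding 2 uM Z-FR-AMC at pH 5.5.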
Cruzain noTriton: cruzain (T. cruzi) inhibition without detergent; P25779; purified cruzain, Z-FR-AMC fluorescence, no detergent; Potency, µM, without a hit: max response, negative = inhibition, usual class: inhibitors; 200,000 compounds, 2.3% hits;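 note: plate controls were enzyme without inhibitor for no effect and buffer without enzyme for full effect; nearly all actives have a fitted effect of over 40% in size; top concentration of the series not given in the record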
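Detergent-free condition (0.00005% Triton X-100) in acetate buffer pH 5.5 with DTT. 1.5 nM enzyme and compound were pre-mixed 15 min, then 2 uM Z-FR-AMC substrate added; reaction progress from fluorescence change between first and third reads (60 s).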
RE007 growth inh: less growth of the S. pombe RE007 Vpr strain. Potency, µM (titrated, usually from 92.2 µM), for the others: at the top dose activity change, negative = less growth. S. pombe RE007 Vpr strain, BacTiter-Glo ATP luminescence, 24 h; control for the full effect not named in the record. 360,000 compounds, 0.21% hits. AID 651644; active = well fitted falling curve with a large enough effect; inconclusive = small, poorly fitted or top-dose-only effect; inactive = no such curve, though single readings can be large or run the other way;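 note: % is set by controls: 0 for no effect and ±100 for the full control effect; nearly all actives have a fitted effect of over 50% in size; the assay follows cell death caused by Vpr and the record does not say whether a fall means rescue or toxicity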
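Fission yeast strain RE007, carrying one chromosomally integrated HIV-1 vpr copy, was seeded at OD 0.01 in PMG+AL medium with 23 nL pinned compound. After 24 h at 30 °C and 99% humidity, viability was read by BacTiter-Glo luminescence.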
NS1 inh: inhibitors of influenza NS1 protein function; Potency, µM (titrated, usually from 46.1 µM), inactives show at the highest dose activity, positive = more growth; 270,000 compounds, 0.4% hits; S. cerevisiae slowed by influenza A NS1, growth recovery by OD600; active means well fitted rising curve with a large enough effect; inconclusive means small, poorly fitted or top-dose-only effect; inactive means no such curve, though single readings can be large or run the other way; note: nearly all actives have a fitted effect of over 50% in size
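Read-out: OD600 growth recovery of NS1-expressing budding yeast. Cells grown overnight at 30C in -URA glucose medium, washed, resuspended and diluted 1:100 in 2% galactose assay medium, pH 6.0. Same strain lacking NS1 served as positive control.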
Marburg entry inh: Marburg virus entry inhibition. Marburg virus pseudotyped entry inhibition, cell reporter; control for the full effect not named in the record; about a third of the inactives were read at about 46 µM. Potency, µM (titrated, usually from 37.8 µM), for the others: top-dose activity change, negative = inhibition, most hits filed as inhibitors. 300,000 compounds, 1.8% hits; active = well fitted inhibition curve with a large enough effect; inconclusive = small, poorly fitted or top-dose-only effect, or effect the other way; inactive = flat fitted curve, though single readings scatter; tested in HEK293 cells; about a fifth of its hits are not listed in these tables; note: % is set by controls: 0 for no effect and ±100 for the full control effect; luciferase read-out
StopGo reporter: FMDV 2A StopGo reporter, luciferase signal. human cells with a luciferase reporter of 2A StopGo recoding; control for the full effect not named in the record. Potency, µM (top dose mostly 57.9 µM), inactives show at the highest dose signal change, negative = less light. 410,000 compounds, 1.2% hits; active = well fitted falling curve with a large enough effect; inconclusive = small, poorly fitted or top-dose-only effect; inactive = no such curve, though single readings can be large or run the other way; tested in HEK293T cells; note: % is set by controls: 0 for no effect and ±100 for the full control effect; nearly all actives have a fitted effect of over 45% in size; luciferase light after 4 h
Starred values were filed as active, the others as inactive; ? = inconclusive; / = no result given; & = joins results of further samples; [ ] = remark or other dose. Unless noted, calls come from the whole dose curve; as a rule, active = well fitted curve in the direction sought with a large enough effect; inconclusive = small, poorly fitted or top-dose-only effect, or another doubt; inactive = no such curve, though single readings can be large; an effect the other way counts as inactive or inconclusive. Potency is the fitted concentration of half-maximal effect. Outcome played no part in choosing rows; any-hit rate near 4.5%.

mol	SARS PLpro yeast	Lassa entry inh	Cruzain Triton	Cruzain noTriton	RE007 growth inh	NS1 inh	Marburg entry inh	StopGo reporter
O=C(c1ccco1)N1CCN(S(=O)(=O)c2cccc(C(F)(F)F)c2)CC1	-7%	22%	0.3%	6%	2%	4%	-2%	-7%
O=C(O)c1cccc(NC(=O)C2C3C=CC(C3)C2C(=O)OCC(F)(F)C(F)F)c1 (centres undefined)	1%	-12%	6.1%	-9%	7%	17%	20%&20%[46.1 µM]	-19%
Cc1nnc(N2CCc3ccccc3C2)[nH]c1=O	4%	13%	3.3%	0%	-4%	-16%	11%	-2%
C/C(=N\NC(=O)c1cccc(F)c1)c1ccc(NC(=O)Cc2ccccc2)cc1	-4%	/	/	/	13%	4%	/	16%
COc1ccc(C(=O)Nc2nc(-c3ccc(Br)cc3)ns2)cc1	/	?	-0.9%	14%	/	/	4%[46.1 µM]	?
Cc1cccc(NC(=O)CSc2nnc(C)c(=O)[nH]2)c1	/	11%[46.1 µM]	-1.8%	-1%	/	/	-7%[46.1 µM]	-20%
C[C@H](NC(=O)c1nc[nH]c1C(=O)NCCCCCNC(=O)OC(C)(C)C)C(=O)OC(C)(C)C	-1%	/	/	/	-8%	1%	/	?
C/C(O)=c1/cnc2nc3ccccc3n2c1=O	2%	23%	/	/	6%	/	-13%[46.1 µM]	11%
Cc1cccc(N2CCN(S(=O)(=O)c3ccc4[nH]c5c(c4c3)CCCCC5)CC2)c1C	/	?	-9.9%	?	/	/	/	?
Cc1ccc(CCNC(=O)Cn2nc(-c3ccc(C)cc3)ccc2=O)cc1	/	?	0.3%	19%	/	/	/	-17%
CCC(C)n1[nH]c(=O)cc1N (centres undefined)	-2%	10%	1.3%	4%	-14%	2%	18%	/
O=P(Cc1cccc[n+]1[O-])(c1ccccc1)c1ccccc1	-2%	4%	2.2%	3%	16%	13%	?	13%
c1cnc(N2CCN(c3ncc4c(n3)CCNC4)CC2)nc1	/	-3%[46.1 µM]	-1.4%	0%	/	/	2%[46.1 µM]	-12%
C=CCNC(=O)/C(C#N)=C/c1ccc(C)o1	-5%	/	/	/	2%	-2%	/	22%
CCCCNC(=O)CC1SC(=NCC)N(CC)C1=O (centres undefined)	3%	?	0.9%	27%	-4%	1%	-4%[46.1 µM]	6%
Cc1ccc(NC(=O)CSc2nnc(C3CC3)n2N)cc1S(=O)(=O)N1CCOCC1	0%	16%	/	/	8%	/	0%[46.1 µM]	7%
Nc1nnn(CC(=O)N/N=C/c2ccncc2)n1	1%	/	/	/	16%	0%	/	-18%
CN(C)S(=O)(=O)c1cc(C(=O)NCCCn2ccc3ccccc32)ccc1Cl	-1%	-25%	4.0%	?	21%	12%	12%	3%
COc1ccccc1NS(=O)(=O)c1ccc(C)c(NS(=O)(=O)c2cc(C(=O)O)cc(C)c2C)c1	-3%	?	/	/	1%	28%	2%	2%
COc1cc(C2C(C#N)=C(N)Oc3c2ccc2ccccc32)ccc1OCC(=O)Nc1cccc(C)c1 (centres undefined)	12%	10µM*	-2.4%	7.9µM*	16%	11µM*	?	?
Cc1ccc(NC(=O)CC2SC(=O)NC2=O)cc1 (centres undefined)	?	-2%	1.0%	-3%	-1%	6.3µM*	8%	-11%
Cc1ccccc1OC(C)C(=O)N1CCN(c2ccccn2)CC1 (centres undefined)	-6%	/	/	/	-10%	-7%	/	?
O=S(=O)(c1ccccc1)c1ccccc1/C=N\O	4%	23%	9.8%	2%	14%	?	11%	-17%
O=C1C(=O)c2cccc3cccc1c23	-12%	-30%	-4.1%	-10%	?	/	4%	-12%
Oc1[nH]c2ccccc2c1C=NCC1CCCO1 (centres undefined)	-4%	24%	0.3%	-6%	2%	4%	19%	17%
CCN1C(=O)c2cccc3c(NC(=O)c4ccccc4)ccc1c23	-9%	-25%	-5.1%	-21%	-16%	-1%	3%	?
CCOC(=O)c1ccc2c(c1)sc(=NC(=O)c1ccco1)n2CCOC	11%	-5%	-4.2%	12%	-1%	-8%	?	5%
CCN=C1Sc2nc3ccc(OCC)cc3cc2CN1CCOC	-1%	9%	-8.3%	13%	-5%	-4%	1%	?
CC(NC(=O)CSc1n[nH]c(N)n1)c1ccccc1 (centres undefined)	1%	8%[46.1 µM]	/	/	6%	-5%	18%[46.1 µM]	7%
CCCN(C(=O)CN1C(=O)NC2(CCCCCC2)C1=O)C1CCS(=O)(=O)C1 (centres undefined)	1%	-2%[46.1 µM]	/	/	-16%	/	-14%[46.1 µM]	-14%

Entries of single compounds from above.
Oc1[nH]c2ccccc2c1C=NCC1CCCO1 (centres undefined) as listed: SARS PLpro yeast = -4%; Lassa entry inh = 24%; Cruzain Triton = 0.3%; Cruzain noTriton = -6%; RE007 growth inh = 2%; NS1 inh = 4%; Marburg entry inh = 19%; StopGo reporter = 17%
CCCCNC(=O)CC1SC(=NCC)N(CC)C1=O (centres undefined) as listed: SARS PLpro yeast = 3%; Lassa entry inh = ?; Cruzain Triton = 0.9%; Cruzain noTriton = 27%; RE007 growth inh = -4%; NS1 inh = 1%; Marburg entry inh = -4%[46.1 µM]; StopGo reporter = 6%

In the list so far, these have an aryl thioether with sulfur outside any ring:
mol	SARS PLpro yeast	Lassa entry inh	Cruzain Triton	Cruzain noTriton	RE007 growth inh	NS1 inh	Marburg entry inh	StopGo reporter
Cc1cccc(NC(=O)CSc2nnc(C)c(=O)[nH]2)c1	/	11%[46.1 µM]	-1.8%	-1%	/	/	-7%[46.1 µM]	-20%
Cc1ccc(NC(=O)CSc2nnc(C3CC3)n2N)cc1S(=O)(=O)N1CCOCC1	0%	16%	/	/	8%	/	0%[46.1 µM]	7%
CC(NC(=O)CSc1n[nH]c(N)n1)c1ccccc1 (centres undefined)	1%	8%[46.1 µM]	/	/	6%	-5%	18%[46.1 µM]	7%

Continued.
| molecule | SARS PLpro yeast | Lassa entry inh | Cruzain Triton | Cruzain noTriton | RE007 growth inh | NS1 inh | Marburg entry inh | StopGo reporter |
| --- | --- | --- | --- | --- | --- | --- | --- | --- |
| Cc1cc(SCNC(=O)c2ccccc2)ncn1 | -1% | -10% | -0.4% | 9% | 5% | 4% | 6% | / |
| CC(C)c1ccc(-c2noc(C3CCCN(C(=O)c4ccc(F)cc4F)C3)n2)cc1 (centres undefined) | -7% | ? | -4.8% | ? | 10% | -47% | ? | ? |
| Cc1ccc(SCCCCN2CCNCC2)cc1 | -23% | 29% | 1.6% | -1% | 0% | 12% | ? | 15% |
| Cc1ccc(-n2nc3ccc(NC(=O)COc4ccccc4C)cc3n2)cc1 | / | 5%[46.1 µM] | 0.4% | 6% | / | / | / | -8% |
| COCCCNCC(=O)Nc1sc(C)c(C)c1C(=O)OC | -3% | 14% | 4.3% | 2% | -1% | -1% | 3% | -21% |
| CCN(CC)CCCNc1ccc(-c2nnc(-c3ccc(OCC(C)C)cc3)o2)cn1 | -1% | 21%[46.1 µM] | / | / | 5% | -3% | 0%[46.1 µM] | 5% |
| Cc1ccccc1C(=O)Nc1ccc(N(C)C)c2ccccc12 | -2% | -6%[46.1 µM] | / | / | -1% | -44% | ? | -3% |
| O=C(CN(C(=O)CCC(=O)Nc1nccs1)c1ccc(F)cc1)NCc1ccccc1 | -2% | -11% | / | / | -9% | ? | -3%[46.1 µM] | 7% |
| O=C(Cc1ccccc1F)OCC(=O)N1CCc2ccccc21 | 0% | -8% | / | / | -6% | -6% | 10%[46.1 µM] | 81%[activator] |
| Cc1ccc(C(=O)NCCc2c[nH]c3ccccc23)c(C)c1 | -5% | 11µM* | / | / | 7% | -6% | ? | -18% |
| COc1ccccc1NC(=O)/C(=N/OCc1ccc(F)cc1)C(C)=O | -2% | ? | / | / | 7% | / | -2%[46.1 µM] | -9% |
| CC(C)CCOc1ccc(NC(=O)C2OC3OC(C)(C)OC3C3OC(C)(C)OC23)cc1 (centres undefined) | 4% | -17% | 3.4% | -7% | 12% | 1% | 2% | -23% |
| COc1ccc2oc(=O)c(C(=O)N3c4ccccc4CC3C)cc2c1 (centres undefined) | -4% | -17% | -0.2% | -4% | -10% | -2% | -4% | 7% |
| Cc1nnc(N2CCC(C(=O)NC3CCCCC3)CC2)c2nn(-c3ccc(Cl)cc3)c(C)c12 | / | -9%[46.1 µM] | 0.7% | 12% | / | / | / | -2% |
| COc1ccc(NC(=O)CN2CCN(c3c(C)cc(C)cc3C)CC2)cc1 | -1% | / | / | / | -9% | -50% | / | ? |
| O=C1CC2C(=O)NCCN2C(=NC(=O)c2ccccc2)N1 (centres undefined) | 1% | 5% | / | / | -7% | 1% | 0% | -5% |
| COc1ccc(C(=O)Nc2scc(-c3ccc(Cl)cc3Cl)c2C(N)=O)cc1 | 8% | -11% | -3.6% | ? | -14% | 8% | -14% | 8% |
| CCCOc1ccc(-c2nnn(CC(=O)N3CCCCC3)n2)cc1 | 0% | / | / | / | -2% | ? | / | 19% |
| COc1cc(C)cc2oc(=O)c(CC(=O)NCc3cccc(Cl)c3)c(C)c12 | / | -27%[46.1 µM] | -4.4% | -9% | / | / | -7%[46.1 µM] | 3% |
| O=C(COC(=O)c1ccc2c(c1)OCCO2)NCc1ccccc1Cl | -12% | -13%[46.1 µM] | / | / | -9% | / | 1%[46.1 µM] | 9% |
| CN(C)C(=O)c1cnc(Sc2ncc(C(F)(F)F)cc2Cl)n1C | -38% | 3% | 4.8% | -1% | 12% | -76% | -6% | -10% |
| CCCC(C)c1nnc(NC(=O)CCS(=O)(=O)c2ccccc2)s1 (centres undefined) | 2% | / | / | / | ? | 0% | 8%[46.1 µM] | ? |

From PubChem BioAssay
